VACV E9 pol inh = vaccinia E9 polymerase processive synthesis inhibitors, primary screen, biochemical, absorbance. in vitro processive DNA synthesis, absorbance read-out; active compounds read low; some inactives read as strong as hits. Vaccinia virus DNA polymerase (E9) processive complex. hit rate 0.94% among 46,000. normalized absorbance, % (concentration not given with the values);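 active = replicate mean up to 90% and picked by the depositor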;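 also: 100% = median of the test wells of a plate; 100 nL library stock went into each well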
The depositor's hits bear a star. Not all compounds are listed (hit frequency here may not be typical).

SMILES | VACV E9 pol inh
CCN(CC)C(=O)c1ccccc1NC(=O)c1cccc(S(=O)(=O)N(CC)CC)c1 | 102
CCN1CCN(c2cc3c(nn2)Oc2ccccc2N3C)CC1 | 97
CN(/N=C/c1sc2ccccc2c1O)c1ccccc1 | 85
O=C(CNC(=O)c1ccccc1F)OCc1ccccc1 | 107
O/N=C(/Cc1ccc2ccccc2n1)c1ccccc1 | 106
CCCCn1c(O)c(C#N)c(C)cc1=O | 98
CS(=O)(=O)Nc1ccc(N2CCN(c3ccc(C(F)(F)F)cn3)CC2)nc1 | 101
C=CCn1c(SCc2ccc(Cl)cc2)nc2cc(C(=O)N3CCC(C(N)=O)CC3)ccc2c1=O | 101
NNC(=S)NC12CC3CC(CC(C3)C1)C2 | 100
Oc1ccccc1N1CCN(C(=S)NCc2ccccc2)CC1 | 101
CSc1n[nH]c(=O)c2cc(C)nn12 | 96
COc1cc(CN2CCN(Cc3ccc4ccccc4c3)CC2)cc(OC)c1OC | 101
Cn1c(=O)cc(SCC(=O)N2CCN(c3cccc(Cl)c3)CC2)c2ccccc21 | 104
COc1cccc(OCC(=O)NCC2CCCO2)c1 (stereo unspecified) | 98
O=C(O)CCC(=O)OCc1ccccc1 | 96
CCCNC(=O)c1ccccc1Br | 101
Cc1cc(C)c(NC(=O)COC(=O)C2CCC(=O)N2)c(C)c1 (stereo unspecified) | 93
O=C(NCCCn1ccnc1)c1ccccc1Cl | 100
COC(=O)C1=C(C)N(C2CCCCC2)C(=O)/C1=C\c1cccs1 | 100
CCOc1ccc(CO[C@@H]2O[C@H](CO)[C@@H](O)[C@H](O)[C@H]2NC(C)=O)cc1OC | 102
COC(=O)c1cc(Br)c(O)c(Br)c1 | 100
Cc1ccc(S(=O)(=O)N2CCSc3ccccc32)cc1 | 86
COc1ccc(N2CC(C(N)=O)CC2=O)cc1 (stereo unspecified) | 100
CCCNC(=O)C1CCN(c2cc(C)nc3c(-c4ccc(Cl)cc4)c(C)nn23)CC1 | 96
COc1ccc(-n2cc(-c3ccccc3)c3c(NCc4ccccc4)ncnc32)cc1 | 92
O=C(Oc1cccnc1)c1cc2ccccc2o1 | 102
COc1ccc2nc(C)cc(Nc3ccccc3)c2c1 | 81*
Cc1ccc2oc(C(=O)Nc3nnc(C(C)C)s3)c(C)c2c1 | 92
O=C1c2ccccc2C(=O)N1c1ccc2ncccc2c1 | 99
O=C(COc1ccc(-c2ccccc2)cc1)N1CCCC1 | 95
CCOC(=O)c1cc2n(n1)C(C(F)(F)F)CC(c1ccccc1)N2 (stereo unspecified) | 100
C(=N\n1cnnc1)/c1cccc2ccccc12 | 101
CCOC(=O)C(C#N)C1(c2c(C)[nH]n(-c3ccccc3)c2=O)C(=O)N(c2ccccc2)N=C1C (stereo unspecified) | 111
c1nc(N2CCCC2)c2nc3n(c2n1)CCCCC3 | 101
C/[N+]([O-])=C/c1ccccc1 | 98
Brc1ccc(Nc2ncnc3ccccc23)cc1 | 80
CCC(C)NC(=O)c1ccc(N(CC)CC)cc1 (stereo unspecified) | 100
CCc1ccccc1NC(=O)C1CCCN(c2ncnc3c2nc2n3CCCCC2)C1 (stereo unspecified) | 97
CC1(C)CCC(C)(C)c2cc(C(=O)Nc3ccc(C(=O)O)cc3)ccc21 | 100
COc1ccc(Br)cc1S(=O)(=O)NCc1ccccn1 | 99
O=C(CCS(=O)(=O)c1cccs1)Nc1ccc(C(=O)NCc2cccs2)cc1 | 100
CCS(=O)(=O)N1CCCC(C(=O)N2CCC3(CC2)OCCO3)C1 (stereo unspecified) | 109
Cc1ccc(C)c(NC2=NC3CS(=O)(=O)CC3S2)c1 (stereo unspecified) | 114
CCOc1ccccc1C(=O)Nc1ccc(Cl)cc1 | 100
Cc1ccc(/C=C(\NC(=O)c2ccc(C)cc2)C(=O)NCc2ccncc2)cc1 | 104
CCc1ccc(/C=C2\CN(C)C/C(=C\c3ccc(CC)cc3)C2O)cc1 | 100
CCn1cc(C(=O)O)c(=O)c2cc(S(=O)(=O)N(C)C3CCCCC3)ccc21 | 98
COC(=O)CSc1nnc(CNC(=O)c2ccc(S(=O)(=O)N3CCCCC3)cc2)n1C | 103
CN(C)c1ccc(NC(=O)CC2Sc3ccccc3NC2=O)cc1 (stereo unspecified) | 97
O=S1(=O)CC(O)C(N2CCCCC2)C1 (stereo unspecified) | 101
CCCn1c(-c2ccc(N(C)C)cc2)nc2ccccc21 | 100
COc1ccc(OCC(=O)Nn2c(=S)[nH]c3ncccc3c2=O)cc1 | 100
Cc1ccc(N=C2NC(=O)/C(=C\c3cccs3)S2)c(C)c1 | 98
O=C1CCCc2[nH]c(=O)cc(C(F)(F)F)c21 | 101
O=C(Cc1ccccc1)Nc1ccc(N2CCOCC2)cc1 | 98
CCN(CC)c1ccc(/C=C2/C(=O)N=C(N)N2C)cc1 | 100
O=C(CS(=O)(=O)c1cn(Cc2ccc(Cl)cc2)c2ccccc12)Nc1nccs1 | 81
CC(C)CN1C(=O)N(c2ccccc2)C(n2oc(=O)n(-c3ccccc3)c2=O)C1(C)C (stereo unspecified) | 100
CC(=O)Oc1ccc2ccc3ccc(OC(C)=O)c4ccc1c2c34 | 99
O=C(NCC(c1cccs1)N1CCOCC1)C(F)(F)F (stereo unspecified) | 106

Quoted at random: eight entries already listed
SMILES | VACV E9 pol inh
CC(C)CN1C(=O)N(c2ccccc2)C(n2oc(=O)n(-c3ccccc3)c2=O)C1(C)C (stereo unspecified) | 100
CCCn1c(-c2ccc(N(C)C)cc2)nc2ccccc21 | 100
Cc1ccc(C)c(NC2=NC3CS(=O)(=O)CC3S2)c1 (stereo unspecified) | 114
Cc1ccc(N=C2NC(=O)/C(=C\c3cccs3)S2)c(C)c1 | 98
COc1ccc(OCC(=O)Nn2c(=S)[nH]c3ncccc3c2=O)cc1 | 100
CCS(=O)(=O)N1CCCC(C(=O)N2CCC3(CC2)OCCO3)C1 (stereo unspecified) | 109
CC(=O)Oc1ccc2ccc3ccc(OC(C)=O)c4ccc1c2c34 | 99
O=C(CCS(=O)(=O)c1cccs1)Nc1ccc(C(=O)NCc2cccs2)cc1 | 100

By substructure: the entries above with an aryl methoxy group
SMILES | VACV E9 pol inh
COc1cc(CN2CCN(Cc3ccc4ccccc4c3)CC2)cc(OC)c1OC | 101
COc1cccc(OCC(=O)NCC2CCCO2)c1 (stereo unspecified) | 98
CCOc1ccc(CO[C@@H]2O[C@H](CO)[C@@H](O)[C@H](O)[C@H]2NC(C)=O)cc1OC | 102
COc1ccc(N2CC(C(N)=O)CC2=O)cc1 (stereo unspecified) | 100
COc1ccc(-n2cc(-c3ccccc3)c3c(NCc4ccccc4)ncnc32)cc1 | 92
COc1ccc2nc(C)cc(Nc3ccccc3)c2c1 | 81*
COc1ccc(Br)cc1S(=O)(=O)NCc1ccccn1 | 99
COc1ccc(OCC(=O)Nn2c(=S)[nH]c3ncccc3c2=O)cc1 | 100

Next part:
SMILES | VACV E9 pol inh
C=CCSC1=C(C#N)C(c2ccc(C(C)C)cc2)CC(=O)N1 (stereo unspecified) | 97
Cc1ccc(Nc2ccccc2N)cc1 | 103
Cc1csc2nc(CNC(=O)C3CCCCC3)cn12 | 94
O=C(CSc1nc2ccccc2[nH]1)Nc1ccccc1 | 101
CCN(c1cccc(C)c1)c1ccccc1C | 99
Cc1ccc(S(N)(=O)=O)cc1F | 106
Cc1cc(C)c2c3c1C1C=CCC1CN3C(C(=O)O)C1CC=CC21 (stereo unspecified) | 99
CCCCc1c(C)nc2ccc(Br)cc2c1SCCC(=O)O | 99
COc1ccc(-c2nc(C=C3C(=O)c4ccccc4C3=O)c3ccccn23)cc1 | 101
Cn1c(=Nc2cccc(O)c2)ccc2ccccc21 | 98
O=S(=O)(NCc1ccc(-c2cccs2)cc1)c1cccs1 | 96
CC(C)(C)NC(=O)N1c2ccccc2Sc2ccccc21 | 100
NC(=O)COC(=O)CSc1cccc2cccc(Cl)c12 | 91
COC(CNC(=O)c1sc2nc(-c3ccccc3)cn2c1C)OC | 99
COC(=O)c1sc2ccccc2c1NC(=O)c1ccc(Br)s1 | 100
Cc1[nH]n(-c2ccccc2)c(=O)c1/C=C1\SC(=S)N(Cc2ccccc2)C1=O | 100
O=C(Cn1ncc2c(=O)oc3ccccc3c21)N1CCCc2ccccc21 | 104
Cc1cc(C)c(S(=O)(=O)N2CCOCC2)cc1C | 105
COc1cc2[nH]c(=S)nc(NC3CCCCCC3)c2cc1OC | 97
CCOc1ccc(NC(=O)CCNC(=O)c2cn(-c3cccc(OC)c3)c(=O)c3ccccc23)cc1 | 99
COCc1cc(C)c2c(n1)sc1c2nc(C)n2c3ccccc3nc12 | 97
COc1ccc(OCCn2c(=O)oc3ccccc32)cc1 | 96
COc1ccc(NS(=O)(=O)Cc2ccccc2)cc1 | 98
Cc1cc(C)c(-n2c(SCC(=O)c3ccc(C#N)cc3)n[nH]c2=O)c(C)c1 | 97
c1ccc(CSc2nnc(-c3ccccc3)o2)cc1 | 100
C=CCn1c(-c2ccccc2)csc1=Nc1ccc(O)cc1 | 100
CCCNC(=O)CCc1nnc2ccc(N3CCCC3)nn12 | 88
O=C(Cn1ncc2ccsc2c1=O)NCCN1CCN(Cc2ccccc2)CC1 | 90
Cc1ccc(-c2csc(=NC(=O)C(C)C)n2-c2ccc(C)cc2)cc1 | 100
COc1ccc(-c2onc3ccc(Cl)cc23)cc1 | 93
Cc1nn2c3cc(N4CCOCC4)ccc3nc2c2ccccc12 | 105
O=c1cc(-c2ccccc2)[nH]c(=S)[nH]1 | 100
O=c1cc(-c2ccccc2)nc2scc(-c3ccc(Cl)cc3)n12 | 105
CCC(=O)OCCNc1nc(-c2ccccc2)nc2ccccc12 | 100
CCOC(=O)c1sc(NC(=O)/C=C/c2ccc(Cl)cc2)cc1C | 103
COc1cc2c(cc1OC)C1=C(C#N)CN(CCc3ccccc3)CN1CC2 | 100
O=C1/C(=C/N2CCCCC2)Nc2ccccc21 | 100
Cc1nc2ccc(S(=O)(=O)CCC(=O)N3CCN(Cc4ccccc4)CC3)cc2s1 | 86
CCOC(=O)N1CCN(C(=O)c2ccc3c(=O)n(CC4CCCO4)c(=S)[nH]c3c2)CC1 (stereo unspecified) | 104
CC(C)CC1NC(=O)CNC1=O (stereo unspecified) | 101
Cc1[nH]nc2nc(C(F)(F)F)cc(C(F)(F)F)c12 | 103
CCOc1cc2c(cc1OCC)C1C(C(=O)N(C)Cc3ccccc3)c3ccccc3C(=O)N1CC2 (stereo unspecified) | 104
COC(=O)c1sccc1NC(C)=O | 116
COC(=O)c1ccc(CSc2nc3c(c(=O)n2-c2ccccc2)SCC3)o1 | 99
N#CC1=C(N)Oc2cc(N)ccc2C1c1cccnc1 (stereo unspecified) | 112
Cc1ccc(/C=c2\sc3ncnn3c2=O)o1 | 100
Cc1cccc(OCC(=O)NS(=O)(=O)c2ccc(Cl)cc2)c1 | 100
CN1C(=O)CC(c2ccccc2)S(=O)(=O)c2ccccc21 (stereo unspecified) | 89
Cc1cc2ncc(C(=O)c3ccccc3O)cn2n1 | 102
CCOC(=O)C(C)Sc1nnc(Cn2c(=O)sc3ccccc32)n1-c1cccc(Cl)c1 (stereo unspecified) | 104
CCOC(=O)C1=NNCC1C(=O)OCC (stereo unspecified) | 100
Cc1nn(-c2ccccc2)c(Cl)c1C(=O)NCCN(C)C | 106
CC(C)(CO)NC(=O)C(c1ccccc1)c1ccccc1 | 101
COC(=O)c1cc(-c2ccccc2)sc1NC(=O)C1CCCO1 (stereo unspecified) | 92
O=C(O)c1cccc2cccc(S(=O)c3cccc4cccc(CO)c34)c12 (stereo unspecified) | 105
CCc1ccc(OC(C)C(=O)N(Cc2ccccc2)C2CCS(=O)(=O)C2)cc1 (stereo unspecified) | 100
O=C(OCC(=O)N1CCCC1)c1ccc(Oc2ccccc2)cc1 | 94
N=C1C(c2nc3ccccc3c(=O)[nH]2)=C(O)CN1c1ccccc1 | 102
COc1ccc(C2=NN(S(C)(=O)=O)C(c3ccc(C)cc3)C2)cc1 (stereo unspecified) | 100
CCOC(=O)c1ccc(N2CCN(c3ccccc3F)CC2)c(NC(=O)Nc2ccc(CC)cc2)c1 | 108

Next part:
SMILES | VACV E9 pol inh
O/N=C(/c1ccccc1)c1ccccn1 | 100
COc1cc(OC)c2ccc(=O)oc2c1 | 99
CC(C)(C)C(=O)CSc1nnc(-c2ccncc2)o1 | 101
Cc1cccc(C(=O)OCC(=O)Nc2ccc(Cl)cc2)c1 | 96
Clc1ccc(C2=CC(c3ccccc3)n3ncnc3N2)cc1 (stereo unspecified) | 100
O=C(O)c1ccc(C(F)(F)F)cc1 | 95
COCc1cc(C)nc2n[nH]c(N)c12 | 100
CCCC(=O)Nc1nc(-c2ccc(F)cc2)cs1 | 102
O=C(Nc1nc(-c2cc3ccccc3oc2=O)cs1)C1CC1 | 99
CC1(C)Oc2ccc(NC(=O)C3(c4ccccc4)CCCC3)cc2O1 | 100
COc1ccc(C2=CC(c3ccccc3)SC(N)=N2)cc1 (stereo unspecified) | 93
CCC1(C)Cc2c(C#N)c(N)sc(=S)c2CO1 (stereo unspecified) | 100
CSc1nnc(Cn2c(=O)sc3ccccc32)n1-c1ccccc1 | 93
CC(C)(C)C1CCC(OCC(O)CN2CCCC2)CC1 (stereo unspecified) | 75
CSCCn1c(-c2ccccc2)cc(C(=O)N2CCCC2)c1C | 100
O=C(Nc1ccc(-c2csc(-c3ccccc3)n2)cc1)c1cccs1 | 99
COc1ccccc1C1C2=C(CCCC2=O)N(CC(=O)O)C2=C1C(=O)CCC2 | 104
O=C1/C(=C/c2cc(Br)cs2)CCC/C1=C\c1cc(Br)cs1 | 106
CCN(C(=O)C1c2ccccc2Oc2ccccc21)c1ccccc1 | 99
COc1c2occc2cc2ccc(=O)oc12 | 100
Cc1cc(=O)oc2cc(OC(=O)CSC(=N)N)ccc12 | 101
CCOC(=O)c1cc(C)nc(Sc2ccccn2)c1C#N | 101
Cn1c(CN2C(=O)CSc3ccc(C(F)(F)F)cc32)nnc1SCc1ccccc1 | 99
Cc1cccc(NC(=O)Cn2c(C(F)(F)F)nc3ccccc32)c1 | 93
O=c1[nH]c2ccc(Br)cc2c(-c2ccccc2)c1CN1CCOCC1 | 99
